From PubChem
FGF22 binding – binders of human FGF22 protein, primary screen, FGF22 synaptogenesis inhibitor project, biophysical, thermal shift, single point; recombinant FGF22 thermal shift, SYPRO orange fluorescence; percent of sucrose octasulfate shift, DMSO zero; Fibroblast growth factor 22 (Homo sapiens), Q9HCT0; 340,000 compounds, 1.5% hits; AID 651658, 2012; calls only at 9.99 µM;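 active = melting point raised past a set limit in the mean and every replicate; three in four hits are not shown here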
Target sequence (Q9HCT0 whole entry, looked up): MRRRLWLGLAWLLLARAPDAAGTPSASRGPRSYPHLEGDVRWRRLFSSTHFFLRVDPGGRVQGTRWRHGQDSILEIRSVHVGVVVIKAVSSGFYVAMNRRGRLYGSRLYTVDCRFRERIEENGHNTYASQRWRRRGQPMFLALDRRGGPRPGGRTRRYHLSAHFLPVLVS
UCH37 inh – inhibitors of human UCH37 deubiquitinase, primary screen, biochemical, Ub-AMC cleavage, fluorescence; purified proteasome/UCH37; inhibition, % (test concentration not listed); AID 588478, 2011; Ubiquitin carboxyl-terminal hydrolase isozyme L5 (Homo sapiens), Q9Y5K5; 330,000 compounds, 0.33% hits;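 active = mean of two replicates above 20%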;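 note: 0% = compound-free wells with enzyme and 100% = wells lacking proteasome; stock transfer was 100 nL into about 20 µL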
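Material: Human UCH37 enzyme supplied as purified proteasome complex | Schedule: 30 min compound-proteasome preincubation then 25 min substrate reaction, room temperature | Detection: AMC fluorescence from Ub-AMC cleavage, excitation 355 nm, emission 460 nm | Benchmarks: Wells without proteasome as full block, compound-free enzyme plus substrate as uninhibited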
Beta2AR agonist – beta2AR agonists driving receptor internalization, primary screen, cell-based, FAP fluorogen, flow cytometry; AID 504454, 2011; response, % (no concentration beside the values); 340,000 compounds, 0.43% hits; Beta-2 adrenergic receptor (Homo sapiens), P07550; Am2.2-beta2AR cells; reference of the scale not given here;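 active = response above a set limit, near 3 SD of response in nonfluorescent compounds, cut at about 42% in these data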;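 note: stock transfer was 100 nL into about 11 µL; a reference agonist was the positive control; negative values mostly stem from fluorescent compounds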
Target sequence (P07550 whole entry, looked up): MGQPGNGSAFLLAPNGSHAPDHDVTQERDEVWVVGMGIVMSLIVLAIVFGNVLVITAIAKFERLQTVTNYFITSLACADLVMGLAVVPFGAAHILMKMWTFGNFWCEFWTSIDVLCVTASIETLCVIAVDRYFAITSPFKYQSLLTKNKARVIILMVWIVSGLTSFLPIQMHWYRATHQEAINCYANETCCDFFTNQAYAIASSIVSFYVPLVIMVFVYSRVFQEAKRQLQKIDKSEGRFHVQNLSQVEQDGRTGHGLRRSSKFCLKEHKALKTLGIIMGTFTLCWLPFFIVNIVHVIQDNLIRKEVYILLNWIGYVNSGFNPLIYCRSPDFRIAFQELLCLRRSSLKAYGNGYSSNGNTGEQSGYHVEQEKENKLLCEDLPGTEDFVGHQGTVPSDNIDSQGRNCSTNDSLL
HNF4A DNA FP – change in binding of human HNF4A to DNA, primary screen, biochemical, fluorescence polarization, FITC-DNA; 1 h; Hepatocyte nuclear factor 4-alpha (Homo sapiens), P41235; activity change, % at 10 µM; 360,000 compounds, 0.3% hits; in the data active = activity change above about 30%, passing the limit was not always enough;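 note: controls were the assay level and a saturating level of protein; the project sought stronger binding though the title names inhibitors; some compounds called inactive have numbers as strong as hits; positive values seem to mean higher polarization but the record does not say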
Ecoli rRNA inh – reduced GFP signal of wild-type E. coli, primary screen, bacterial rRNA inhibitor project, GFP/RFP fluorescence, OD600, single point; E. coli WT GFP vs humanized-ribosome RFP mutants, 24 h; stronger effect = lower value; DMSO median 0, no signal -100; GFP signal change (wild-type ribosome), % (no concentration beside the values); 350,000 compounds, 1.6% hits; AID 720706, 2013;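 active = significant combined selectivity score with lowered wild-type GFP, culture density cut under 30%, mutant RFP and density less affected; inactive = any of these conditions unmet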; note: one replicate is shown; some compounds called inactive have numbers as strong as hits
ALR inh – inhibitors of human ALR sulfhydryl oxidase, primary screen, biochemical, H2O2 detection, HRP-luminol luminescence, single point; purified ALR, DTT oxidation; inhibition, % (test concentration not listed); 290,000 compounds, 3.8% hits; AID 485317, 2010;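 active = mean and each replicate at 75% or more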;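 note: stock transfer was 7.5 nL into about 7.5 µL; 0% = neutral wells and 100% = wells with inactivated enzyme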
Target sequence (P55789 whole entry, looked up): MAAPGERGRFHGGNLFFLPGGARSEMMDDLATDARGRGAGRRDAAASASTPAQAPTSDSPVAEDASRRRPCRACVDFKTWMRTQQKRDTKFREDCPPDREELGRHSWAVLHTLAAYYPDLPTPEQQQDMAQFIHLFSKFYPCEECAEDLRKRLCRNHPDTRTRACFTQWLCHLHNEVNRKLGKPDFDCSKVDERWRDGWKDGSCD
E coli growth – E. coli growth inhibition, primary screen, OD600. OD600 absorbance (test concentration not listed). 330,000 compounds, 0.21% hits. Escherichia coli growth, 23 h; stronger effect = lower value;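 active = OD600 absorbance below the run mean of sample wells minus 3.6 SD, in any replicate, cut at about 0.56 in these data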;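 note: stock transfer was 300 nL into about 60 µL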
Ecoli rRNA inh OD600 – further read-out of Ecoli rRNA inh, marked with its call; OD600 change, %; measured here: OD600 growth;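 optical density of the mix in the first replicate; 0 = DMSO median and -100 = no signal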
Ecoli rRNA inh RFP – also measured in Ecoli rRNA inh; calls as there; RFP signal change, %; measured here: RFP humanized mutant strains;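 first replicate; 0 = DMSO median and -100 = no signal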
* marks the source's active call; other numbers are inactive results; i = inactive; / = no result given; & = joins results of further samples. This is a subset; the hit share may differ from the screen's.

Preview (2 entries):
SMILES | FGF22 binding | UCH37 inh | Beta2AR agonist | HNF4A DNA FP | Ecoli rRNA inh | Ecoli rRNA inh OD600 | Ecoli rRNA inh RFP | ALR inh | E coli growth
CCN(CC)S(=O)(=O)c1cc(NC(=O)C(C)OC(=O)c2[nH]c(C)c(C(C)=O)c2C)ccc1C (stereo unspecified) | i | 3.9 | -4 | -0.3 | -14 | -55 | 9.2 | -30 | 0.68
CCC1COCCS(=O)(=O)N1Cc1cccc(C(F)(F)F)c1 (stereo unspecified) | i | 4.4 | 2 | -1.8 | -6 | -6 | 13 | 2 | 0.74

Main list, repeating the preview:
SMILES | FGF22 binding | UCH37 inh | Beta2AR agonist | HNF4A DNA FP | Ecoli rRNA inh | Ecoli rRNA inh OD600 | Ecoli rRNA inh RFP | ALR inh | E coli growth
CCN(CC)S(=O)(=O)c1cc(NC(=O)C(C)OC(=O)c2[nH]c(C)c(C(C)=O)c2C)ccc1C (stereo unspecified) | i | 3.9 | -4 | -0.3 | -14 | -55 | 9.2 | -30 | 0.68
CCC1COCCS(=O)(=O)N1Cc1cccc(C(F)(F)F)c1 (stereo unspecified) | i | 4.4 | 2 | -1.8 | -6 | -6 | 13 | 2 | 0.74
CCOC(=O)NC(=O)/C(C#N)=C(/C)N(C)C | i | 0.6 | 0 | 3.8 | 5 | 11 | 6.6 | -5 | 0.67
CN(CC(=O)Nc1ccc(F)c(F)c1F)C(=O)C1CCCN1C(=O)c1cccs1 (stereo unspecified) | i | / | / | -0.6 | 7 | 10 | 3.8 | / | /
O=C(NC(=S)Nn1cnnc1)c1cccc(Br)c1 | / | 1.9 | 4 | -2.2 | / | / | / | 12 | 0.69
Cc1cc(=O)[nH]c(N2CCN(C(=O)c3ccco3)CC2)n1 | i | 2.2 | 1 | 1.2 | 5 | 8 | 0.4 | / | 0.67
COC(=O)c1ccc(NC(=O)C(=O)c2c[nH]c3ccccc23)cc1 | i | -1.8 | 13 | 4.1 | 10 | 16 | 0.0 | 0 | 0.69
Cc1cccc(NC(=O)CN(C)S(=O)(=O)c2ccc(Br)cc2)n1 | / | 5.6 | -4 | 0.6 | / | / | / | -2 | 0.74
C=CCOC(=O)c1sc(NC(=O)c2ccco2)nc1C | / | -6.2 | -16 | 1.4 | / | / | / | -16 | 0.73
CCCCN(CCCC)C(=O)c1cc(Cl)ccc1[N+](=O)[O-] | / | 3.6 | 4 | 0.5 | / | / | / | -15 | 0.67

An excerpt from above, showing only Ecoli rRNA inh RFP and Beta2AR agonist:
molecule	Ecoli rRNA inh RFP	Beta2AR agonist
CN(CC(=O)Nc1ccc(F)c(F)c1F)C(=O)C1CCCN1C(=O)c1cccs1 (stereo unspecified)	3.8	/
COC(=O)c1ccc(NC(=O)C(=O)c2c[nH]c3ccccc23)cc1	0.0	13
CCCCN(CCCC)C(=O)c1cc(Cl)ccc1[N+](=O)[O-]	/	4
CCC1COCCS(=O)(=O)N1Cc1cccc(C(F)(F)F)c1 (stereo unspecified)	13	2
O=C(NC(=S)Nn1cnnc1)c1cccc(Br)c1	/	4
CCOC(=O)NC(=O)/C(C#N)=C(/C)N(C)C	6.6	0
CCN(CC)S(=O)(=O)c1cc(NC(=O)C(C)OC(=O)c2[nH]c(C)c(C(C)=O)c2C)ccc1C (stereo unspecified)	9.2	-4

Next results follow.
SMILES | FGF22 binding | UCH37 inh | Beta2AR agonist | HNF4A DNA FP | Ecoli rRNA inh | Ecoli rRNA inh OD600 | Ecoli rRNA inh RFP | ALR inh | E coli growth
COc1ccc(C(=O)N=C2SC3CS(=O)(=O)CC3N2c2ccc(C(C)=O)cc2)cc1 (stereo unspecified) | i | 1.2 | -3 | -0.5 | 9 | 21 | 2.1 | -1 | 0.71
COc1ccc(OC)c(Nc2nc(-c3ccc(O)c(O)c3)cs2)c1 | / | / | 8 | -0.6 | / | / | / | 95* | /
O=[N+]([O-])c1cc(/C=N/O)ccc1Oc1ccccc1Cl | i | / | 3 | -1.0 | / | / | / | -2 | /
CCn1cc(C(=O)N2CCCC2)c(=O)c2cc(S(=O)(=O)N3CCOCC3)ccc21 | / | 7.2 | -1 | 1.6 | / | / | / | 4 | 0.73
COc1cc(C(=O)NNC(=O)c2nn(C)c(=O)c3ccccc23)cc(OC)c1OC | i | 4.5 | -2 | -1.6 | 0 | 16 | 0.2 | / | 0.71
COc1ccc(N2C(=O)CN(Cc3ccc(OC)c(OC)c3)C2=S)cc1 | i | 3.1 | 0 | -2.2 | -5 | -5 | -2.2 | -2 | 0.71
O=C(NC(=O)c1ccccc1)OCC1CCCN2CCCCC12 (stereo unspecified) | i | 4.4 | 11 | 1.9 | 10 | 15 | 1.6 | / | 0.72
Cc1ccccc1C(=O)NNS(=O)(=O)c1cccc([N+](=O)[O-])c1 | i | 3.1 | 1 | -3.9 | 14 | 0 | -3.3 | -11 | 0.69
CCOC(=O)CN1C(=O)N[C@@H](c2ccco2)C(C(C)=O)=C1C | i | 0.9 | -2 | 8.3 | 8 | 10 | 17 | -1 | /
CC(C)N(Cc1ccccc1)CC(O)COc1ccc(S(=O)(=O)N2CCOCC2)cc1Cl (stereo unspecified) | i | 0.2 | 1 | 3.0 | -8 | -22 | 0.6 | -1 | 0.71
Cc1ccc(C(=O)COc2nc(C)cc(C)c2C#N)cc1 | / | 3.1 | 10 | -4.4 | / | / | / | 1 | 0.69
CCCCCc1ccc(-c2cn(Cc3ccc4ccccc4c3)nn2)cc1 | i | 3.7 | -5 | -1.8 | 5 | 10 | -0.9 | -8 | 0.75
CC(C)N(Cc1nc(-c2ccc(Cl)cc2)no1)C(=O)c1cccs1 | / | 0.6 | 1 | 1.6 | / | / | / | 29 | 0.66
COc1ccccc1CNC(=O)C1CCC(CNc2c(N3CCCCC3)c(=O)c2=O)CC1 (stereo unspecified) | i | 1.1 | -4 | -1.3 | 11 | 12 | 2.7 | / | 0.63
O=C(NNC(=O)c1cccc(-n2cccc2)c1)c1ccccc1 | i | 1.0 | 1 | 2.5 | -13 | 2 | 0.3 | 13 | 0.7
CSc1nnc(-c2cnccn2)n1C | i | -0.2 | -7 | -2.6 | 11 | 5 | -2.8 | -22 | 0.63
Cc1cc(C)c2c(=O)[nH]c(SCC(=O)Nc3ccccc3)nc2n1 | / | 1.9 | 6 | -1.7 | / | / | / | 45 | 0.69
O=C(Nc1nc(-c2ccccn2)cs1)C1CC(=O)N(c2ccc3c(c2)OCCO3)C1 (stereo unspecified) | i | 0.4 | -8 | -5.9 | -30 | -52 | -2.8 | 4 | 0.63
COc1ccc(N2C(=O)NC(NS(=O)(=O)c3ccccc3)(C(F)(F)F)C2=O)cc1 (stereo unspecified) | i | 2.6 | 3 | -0.8 | 6 | 6 | -3.4 | -1 | 0.69
Cc1ccc2oc(=O)cc(CN3CCN(C/C=C/c4ccccc4)CC3)c2c1 | i | 2.4 | -2 | -6.1 | / | / | / | -2 | 0.63
CCCCc1ccc(-c2ccc(C)cc2O)nc1 | / | 1.1 | 1 | 0.1 | / | / | / | -12 | 0.68
CCN(C(=O)COC(=O)Cc1c[nH]c2ccccc12)c1c(N)n(Cc2ccccc2)c(=O)[nH]c1=O | i | -1.7 | 11 | -2.0 | 6 | 5 | 0.5 | / | 0.63
CN(C)C(CNC(=S)Nc1ccccc1)c1cccnc1 (stereo unspecified) | i | 2.4 | 1 | 0.0 | 17 | 5 | -4.5 | 18 | 0.71
CN(Cc1ccccc1)c1ccc(C(CC(N)=O)NC(=O)Cc2ccc(Br)cc2)cc1[N+](=O)[O-] (stereo unspecified) | i | 1.0 | -13 | -1.8 | 7 | 16 | 2.9 | / | 0.72
COc1cccc(NC(=O)COC(=O)CCC(=O)c2cccs2)c1 | i | 0.5 | -4 | 3.9 | -1 | 3 | -2.1 | 2 | 0.68
O=C(O)CNC(=O)c1ccc(N2CCOCC2)cc1[N+](=O)[O-] | i | 2.8 | 0 | -3.5 | 10 | 10 | -2.4 | -9 | 0.71
COc1ccc(C(C)=O)cc1COC(=O)CNC(=O)c1ccccc1F | / | 0.3 | -4 | -0.3 | / | / | / | / | 0.65
Cc1ccc(N(C(=O)CNC(=O)c2ccco2)C(C(=O)NC2CCCC2)c2ccncc2)cc1C (stereo unspecified) | i | 4.6 | -10 | -0.5 | 5 | 11 | -2.5 | 9 | 0.69
Cc1noc(C)c1NC(=O)N(C)C[C@@H]1Oc2ccc(NC(=O)Cc3cn(C)c4ccccc34)cc2CC(=O)N([C@H](C)CO)C[C@@H]1C | i | 0.8 | -2 | 6.2 | 5&9 | 5&8 | 0.8&-1.5 | 0 | 0.77
O=C(NCC(c1cccnc1)N1CCN(c2ccc(F)cc2)CC1)c1ccc(F)cc1 (stereo unspecified) | / | -0.4 | 0 | 3.4 | / | / | / | 98* | 0.74
COc1cc(C(=O)NCc2nnc(SCC(=O)N3CCC(C)CC3)o2)cc(OC)c1OC | / | 1.5 | -4 | 2.4 | / | / | / | 3 | 0.73
CC(C)C(=O)Nc1ccc2nn(-c3ccc(F)cc3)nc2c1 | / | -136 | -10 | 0.5 | / | / | / | -7 | 0.69
CCOc1ccc2nc(NC(=O)CSC3=NCCS3)sc2c1 | / | -2.1 | 3 | 0.9 | / | / | / | 99* | 0.73
O=C(CSC1=N/C(=C/c2ccc(Cl)c(Cl)c2)C(=O)N1c1ccccc1F)NC1CC1 | i | -226 | 21 | -2.1 | 12 | 8 | 16 | 9 | 0.66
O=C(NC(=S)Nc1cccc2ncccc12)c1ccco1 | i | 5.5 | -8 | -5.9 | 17 | 13 | 1.2 | -27 | 0.68
O=C(Nc1ccccc1Br)C1CC(=O)N(c2ccc3c(c2)OCCO3)C1 (stereo unspecified) | i | 0.9 | -2 | -4.1 | 0 | 2 | -3.0 | -12 | 0.67
CCSc1nnc(CNc2ccc(F)cc2)n1CC1CCCO1 (stereo unspecified) | / | 3.8 | 14 | 0.7 | / | / | / | -29 | 0.72
COc1ccc(C2c3ccc4ccccc4c3Oc3ncn(CCO)c(=N)c32)cc1 (stereo unspecified) | / | 7.3 | -2 | 3.5 | -36 | -62 | 33 | -11 | 0.66
O=C(C1CCN(C2CCN(Cc3ccsc3)CC2)CC1)N1CCOCC1 | i | 0.0 | 3 | 4.8 | / | / | / | -6 | 0.7
CCOC(=O)c1ccc(NC(=S)NC2CCCC2)cc1 | i | 2.5 | 8 | 4.8 | -56 | -81 | -29 | 16 | 0.66
C=CCn1c(CSCc2ccccc2)nnc1SCC(=O)N1CCN(c2ccccc2)CC1 | i | 4.0 | -11 | -0.6 | -7 | -12 | 1.5 | 13 | 0.69
COc1ccccc1-c1nn2c(=O)cc(C)nc2s1 | / | -11 | 7 | 1.8 | / | / | / | -4 | 0.76
Cc1ccccc1OCC(=O)N1CCC2(CC1)CC(=O)c1ccccc1O2 | i | -17 | 1 | -4.2 | -11 | -17 | 1.6 | -10 | 0.69
